# Screening results (PubChem BioAssay)
# VACV Venus inh: qHTS for Stage-Specific Inhibitors of Vaccinia Orthopoxvirus: Venus Reporter Primary qHTS; Potency, µM (series often up to 36.5 µM), without a hit: at the highest dose activity change, negative = inhibition, most hits filed as inhibitors; AID 720580, 2013; Vaccinia virus Venus reporter expression, fluorescence; 330,000 tested, 0.46% active; active means well fitted inhibition curve with a large enough effect; inconclusive means small, poorly fitted or top-dose-only effect; inactive means no such curve, though single readings can be large or run the other way; tested in A549 cells; further: nearly all actives have a fitted effect of over 30% in size; inactives centre near -10
# Vaccinia mCherry: qHTS for Stage-Specific Inhibitors of Vaccinia Orthopoxvirus: mCherry Reporter Primary qHTS; Vaccinia virus mCherry reporter infection, fluorescence; about a quarter of the inactives have no number; AID 720579, 2013; 310,000 tested, 0.63% active; Potency, µM (highest dose often 36.5 µM), inactives show at the highest dose activity change, negative = inhibition, most hits filed as inhibitors; active = well fitted inhibition curve with a large enough effect; inconclusive = small, poorly fitted or top-dose-only effect; inactive = no such curve, though single readings can be large or run the other way; tested in A549 cells; further: nearly all actives have a fitted effect of over 35% in size; inactives centre near -10
# Active calls of the source: *; i = inactive; ? = inconclusive; · = no result given; & = joins results of further samples; [ ] = another dose, or the depositor's remark. On the % scale 0 is the no-effect control and ±100 the full control effect; potency means the concentration at half of the fitted maximal effect.
entry	molecule	VACV Venus inh	Vaccinia mCherry
1	Cc1csc(NC(=O)c2ccc(S(=O)(=O)N(C)c3ccccc3)cc2)n1	-36%	·
2	CS(=O)(=O)N1c2ccccc2[C@@]2(Br)C[C@H]3C(=O)N[C@@H](Cc4ccccc4)C(=O)N3[C@@H]12	-13%	-24%
3	CCOC(=O)c1cc(-c2csc(-c3ccc(C(F)(F)F)cc3)n2)on1	-6%	-7%
4	CCN1CCN(C(=S)c2ccc(OC)cc2)CC1	11%	4%
5	CCOC(=O)Cn1c(=O)n(C2CCCCC2)c2nc(-c3c(F)cccc3Cl)nc(C(N)=O)c21	-8%	-17%
6	Cc1cc(NC(=O)c2cccc(Br)c2)n[nH]1	-7%	-6%
7	Cn1c(=O)[nH]c(=O)c2c1nc(NCCCn1ccnc1)n2CCOc1ccccc1	0%	·
8	C[C@H](CO)N1C[C@H](C)[C@H](CN(C)C(=O)Cc2cccnc2)Oc2ncc(Br)cc2C1=O	-1%	-18%
9	C/C(=N\NC(=O)c1c[nH]c2ccccc12)c1ccccn1	?	10µM*
10	O=C(Cc1c[nH]c2ccccc12)NCc1ccco1	-6%	-1%
11	CCOC(=O)c1cc(-c2ccc(OC)cc2)nn1-c1ccccc1C(=O)O	-6%	-26%
12	O=C(CCl)NC1(C(=O)O)CCCC1	-11%	i
13	CC[C@H](C)[C@@H]1NC(=O)[C@@H](CC(C)C)NC(=O)[C@H](C(C)C)NC(=O)[C@H]2CSSC[C@H](NC1=O)C(=O)N2	4.5µM*	5µM*
14	COc1cc(OC)cc(C(=O)Nc2ncc3c(n2)CC(C)CC3=O)c1 (configuration not stated)	-3%	-7%
15	Cc1sc2ncn(CC(=O)N3CCN(c4ccccc4F)CC3)c(=O)c2c1S(=O)(=O)N1CCOCC1	-15%	-19%
16	COc1c(C)cc(C(=O)C2CCCN(Cc3ccccn3)C2)cc1C (configuration not stated)	-6%	-10%
17	CC1CCCC(C)N1c1ccc(S(=O)(=O)N2CCOCC2)cc1Cl (configuration not stated)	0%	-13%
18	Cc1cc(OC(=O)c2ccc(C(F)(F)F)cc2)c([N+](=O)[O-])c(=O)[nH]1	-7%	i
19	Cc1nn(CC(O)Cn2cnc3c2c(=O)n(C)c(=O)n3C)c(C)c1Br (configuration not stated)	-16%	i
20	COc1ccc(N2CCN(C(c3ccccc3)c3nnnn3C(C)C)CC2)cc1 (configuration not stated)	-18%	-11%
21	CCOC(=O)c1c(NC(=O)COC(=O)c2cnccn2)sc(C(=O)NC)c1C	-1%	-11%
22	Cc1csc(C(C#N)C(=O)c2ccc(S(=O)(=O)N3CCCC3)cc2)n1 (configuration not stated)	0%	-8%
23	CC(C)c1ccc(S(=O)(=O)N2CCN(C(=O)Cc3ccsc3)CC2)cc1	-25%	-21%
24	CCN(C(=O)c1ccncc1)c1c(N)n(Cc2ccccc2)c(=O)[nH]c1=O	-8%	i
25	COc1cc(CN2CCCC(N3CCN(c4ccccc4C)CC3)C2)ccc1O (configuration not stated)	?	-18%
26	COc1ccccc1OCC(=O)Nc1cc(NC(=O)COc2ccccc2OC)cc(C(=O)O)c1	-5%	i
27	COc1ccc(/C=C/C(=O)NCC(=O)N/N=C(/CCC(=O)O)c2ccccc2)cc1	-7%	?
28	Cc1cc2c(c(=O)n1Cc1cccnc1)C(c1cccs1)C(C#N)=C(N)O2 (configuration not stated)	9%	-5%
29	Cc1nc(NC(=O)c2ccccc2)nc2cc3c(cc12)OCO3	-14%	i
30	CC1CCCCN1Cc1c(O)ccc2c(=O)c(-c3nc4ccccc4s3)c(N)oc12 (configuration not stated)	-16%	-13%
31	CC[C@H](OC(C)=O)C(C[C@H](C)N(C)C)(c1ccccc1)c1ccccc1	-16%	-7%
32	COc1ccc(S(=O)(=O)Nc2nc3c(s2)C(=O)CC(C)(C)C3)cc1	0%	1%
33	CN(C)/C=C/c1c([N+](=O)[O-])c2ccc(O)cc2n1-c1ccccc1	7%	-8%
34	COc1ccc(C(=O)Nc2cccc(C(=O)NCc3ccco3)c2)cc1	-26%	-15%
35	Cc1ccc(NC(=O)Cc2nnc(SCC(=O)NC3CCCC3)n2C)cc1C	-8%	-12%
36	NCCNc1cc(N2CCCC2)ccc1[N+](=O)[O-]	-27%	-25%
37	O=C(Nc1cc([N+](=O)[O-])ccc1F)C1CC1	-5%	-9%
38	O=C(Nc1ccc(O)c(-c2nc3ccccc3o2)c1)C1(c2ccc(Cl)cc2)CCCC1	-13%	-4%
39	CC(=O)c1cccc(NC(=O)C2Cc3c(-c4cccc(F)c4)ccnc3O2)c1 (configuration not stated)	-14%	-4%
40	C=CCN1CCN(C(=O)CCCc2ccccc2)CC1	-6%	i
41	C[C@@H](C(=O)CC(=O)OC(C)(C)C)[C@@H](O)c1c(F)cccc1Cl	-4%	-20%
42	CC(C)c1ccc(NC(=O)c2cc3c(=O)n(C)c4ccccc4c3n2C)cc1	-12%	14%
43	CC1=C(C(=O)Nc2ccc(C)cc2C)C(c2ccccc2)n2ncc(C(=O)Nc3ccccc3)c2N1 (configuration not stated)	-9%	-12%
44	COc1ccc(/C=C/C(=O)N2CCC(C(N)=O)CC2)cc1S(=O)(=O)N1CCOCC1	-4%	-10%
45	CC(C)Oc1ccc(S(=O)(=O)N2CCOCC2)cc1NC(=O)C1CCC1	-21%	-6%
46	CCS(=O)(=O)c1nc2ccccc2n1CC(=O)Nc1ccccc1C(=O)OC	-5%	-23%
47	CCCCN(CCCC)CC(O)Cn1cc(/C=C/C(=O)c2ccccc2)c2ccccc21 (configuration not stated)	-18%	-16%
48	Cc1ccc2[nH]cc(C(c3ccccc3)c3ccc(Cl)s3)c2c1 (configuration not stated)	-3%	-5%
49	Cc1cccc(NS(=O)(=O)c2ccc(-c3ccc(=O)[nH]n3)o2)c1	-12%[7.34 µM]	i[7.34 µM]
50	COc1ccc(Cl)cc1NC(=S)NCCC(c1ccccc1)c1ccccc1	-21%	-27%
51	COc1ccc(OCC(=O)NNC(=S)NC(=O)C2CC2)cc1	-9%	-19%
52	COc1ccccc1NS(=O)(=O)c1cccc(C(=O)NCC(c2ccccc2OC)N2CCCC2)c1 (configuration not stated)	-27%	-29%
53	O=C(NC1CCN(Cc2ccccc2)CC1)c1ccc(N2CC3CC(C2)c2cccc(=O)n2C3)c([N+](=O)[O-])c1 (configuration not stated)	-9%	i
54	CCOc1cc(/C=N/NC(=O)c2cccnc2)ccc1OCC(=O)N(C)C	-3%	i
55	COP(=O)(OC)Oc1ccc(C(O)C(Cl)(Cl)Cl)cc1 (configuration not stated)	-11%	-4%
56	CCOc1ccc(/C=C2\SC(=S)N(Nc3ccccc3)C2=O)cc1OC	-16%	-7%

# More entries follow.
entry	molecule	VACV Venus inh	Vaccinia mCherry
57	Cc1cccc(NC(=O)c2nc(S(=O)(=O)Cc3ccccc3)ncc2Cl)c1	?	-3%
58	CCCCCCCCN1C(=O)[C@H](CC(=O)N2CCCC2)C[C@@]2(C(=O)OCC)CCCC=C12	-25%	-7%
59	O=C(c1ccccc1NS(=O)(=O)c1ccccc1)N1CCCCCC1	-17%	-22%
60	COc1ccc(C(=O)n2nc(N)c3cc4ccc(C)cc4nc32)cc1OC	-1%	3%
61	CCCC1=NN(C(=O)Cc2ccc(OC)cc2)C(O)(C(F)(F)F)C1 (configuration not stated)	-11%	-6%
62	O=C1c2ccccc2C(=O)N1OCc1c(F)cccc1Cl	-17%	0%
63	Clc1ccc(-c2nc3ccc(Cl)cn3c2Cc2ccsc2)cc1	-6%	10%
64	Cc1ccccc1CN1c2ccccc2-c2nc(SCC(=O)c3ccc(Cl)cc3)ncc2S1(=O)=O	-7%	-13%

# An excerpt from above in order of SMILES length, largest number first:
entry	molecule	VACV Venus inh	Vaccinia mCherry
52	COc1ccccc1NS(=O)(=O)c1cccc(C(=O)NCC(c2ccccc2OC)N2CCCC2)c1 (configuration not stated)	-27%	-29%
18	Cc1cc(OC(=O)c2ccc(C(F)(F)F)cc2)c([N+](=O)[O-])c(=O)[nH]1	-7%	i
30	CC1CCCCN1Cc1c(O)ccc2c(=O)c(-c3nc4ccccc4s3)c(N)oc12 (configuration not stated)	-16%	-13%
23	CC(C)c1ccc(S(=O)(=O)N2CCN(C(=O)Cc3ccsc3)CC2)cc1	-25%	-21%
19	Cc1nn(CC(O)Cn2cnc3c2c(=O)n(C)c(=O)n3C)c(C)c1Br (configuration not stated)	-16%	i
17	CC1CCCC(C)N1c1ccc(S(=O)(=O)N2CCOCC2)cc1Cl (configuration not stated)	0%	-13%
10	O=C(Cc1c[nH]c2ccccc12)NCc1ccco1	-6%	-1%

# The list goes on:
entry	molecule	VACV Venus inh	Vaccinia mCherry
65	Cc1cc(C)c(OCC(=O)NCC(C)(C)N2CCOCC2)c(C)c1	-7%	-17%
66	COc1ccc([N+](=O)[O-])cc1NC(=O)CCN1CCN(c2ccccc2)CC1	-10%	-39%
67	Cc1c(C(=O)N2CCC(C)CC2)c(S(=O)(=O)NCc2ccc(Cl)cc2)c(C)n1C	-8%	-8%
68	NNC(=O)C1CC1c1ccc(Cl)cc1 (configuration not stated)	-9%	-19%
69	O=C(Nc1cccc(O)c1)C1CC(c2ccc(Cl)cc2)=NO1 (configuration not stated)	-13%	-5%
70	CCn1cc(C(=O)O)c(=O)c2cc(F)c(N3CCN(C(=S)NC(=O)c4ccccc4Cl)CC3)cc21	-2%	-15%
71	COc1ccccc1CCNC(=O)CSc1nnc2ccc(-c3cccnc3)nn12	-11%	-25%
72	O=C(NC(=S)Nc1ccc(S(=O)(=O)Nc2nccs2)cc1)c1cccc(F)c1	1%	-11%
73	O=C(NC1CCCCNC1=O)c1ccc(Cl)cc1 (configuration not stated)	19%	·
74	COc1ccccc1-n1cnc2cc(C(=O)NCc3ccco3)ccc21	-21%	·
75	CN(C(=O)NC1CC(=O)N(c2ccc3c(c2)OCCO3)C1)c1ccccc1 (configuration not stated)	-14%	-2%
76	CCOC(=O)N(C)C[C@H]1OCc2cn(nn2)CCCC(=O)N([C@H](C)CO)C[C@@H]1C	-11%	i
77	O=C(Nc1sc2c(c1C(=O)O)CCCC2)c1ccccc1Cl	-11%	i
78	COc1ccc(C(=O)N2CCCC(c3nc(-c4cccs4)no3)C2)cc1OC (configuration not stated)	-13%	i
79	Cc1cc(OC(=O)N(C)C)nc2c1c(C)nn2C	-14%	-4%
80	Cc1nc2c(C)cccn2c(=O)c1NC(=O)c1ccc2c(c1)OCO2	-10%	-11%
81	CCOC(=O)C1=C(C)C2C3C(=O)N(c4cc(C)ccc4C)C(=O)C3C1(C)C1C(=O)N(c3cc(C)ccc3C)C(=O)C21 (configuration not stated)	-8%	5%
82	Cc1ccc(C)c(S(=O)(=O)N2CCN(C(=O)c3ccc(-n4cncn4)c([N+](=O)[O-])c3)CC2)c1	?	-15%
83	CCNc1nc(-c2ccc(OC(F)F)cc2)c(C)s1	-5%	-15%
84	CCCc1nnc(NC(=O)c2nc(S(=O)(=O)Cc3ccc(C)cc3)ncc2Cl)s1	-10%	-14%
85	CCOC(=O)N1CCN(C(=O)Cn2cnc3ccccc3c2=O)CC1	-5%	-3%
86	Cc1ccc(NC(=O)c2ccc(N3CCOCC3)c([N+](=O)[O-])c2)cc1S(=O)(=O)N1CCOCC1	-23%	-12%
87	COc1ccc(-c2noc(-c3ccc(N4CCN(C)CC4)c([N+](=O)[O-])c3)n2)cc1	-4%	-3%
88	c1ccc(OCc2nnc3n2CCCCC3)cc1	1%	-8%
89	Cc1ccc(C(=O)OCC(=O)Nc2sc3c(c2C#N)CCCCC3)cc1NC(=O)c1ccco1	-9%	i
90	COc1ccc(NC(=O)CN2C(=O)COc3ccc(S(=O)(=O)N4CCCCC4)cc32)cc1OC	-4%&-14%	-10%&-3%
91	COc1ccc2oc(C(=O)OCC(=O)Nc3ccccc3OC)c(C)c2c1	-13%	-19%
92	COc1ccc(C2=NN(C(=O)CSc3cn(C)c4ccccc34)C(c3ccc(OC)cc3)C2)cc1 (configuration not stated)	-7%	?
93	O=C1CCC(C(=O)N2CCCCO2)CN1Cc1cccc(C(F)(F)F)c1 (configuration not stated)	-12%	-11%
94	Cc1nn(C(C)C(=O)NC2CCC(C)CC2)c(=O)c2cc3sccc3n12 (configuration not stated)	-7%	-6%
95	CS(=O)(=O)N1CCCC(C(=O)NCc2cccs2)C1 (configuration not stated)	0%	-2%
96	CCC(C)C(=O)Nc1nccs1 (configuration not stated)	-6%	i
97	C=CCn1cnnc1SCC(=O)NCC1COc2ccccc2O1 (configuration not stated)	-14%	i
98	COc1ccc(C(=O)NNC(=S)NC(=O)/C=C/c2cccs2)cc1	-4%	-15%
99	Cc1cc(C)c(N(C(=O)c2csnn2)C(C(=O)NC2CCCC2)c2ccncc2)c(C)c1 (configuration not stated)	1%	-11%
100	Cc1ccc(NC(=O)/C(C#N)=C/c2ccccc2Cl)cc1C	-24%	-20%
101	COc1cccc(CC(=O)N(CCC2=CCCCC2)c2c(N)n(Cc3ccccc3)c(=O)[nH]c2=O)c1	-3%	-13%
102	COC(=O)c1c(NC(=O)c2ccco2)sc(C(=O)N(C)C)c1C	?	-15%
103	CCOC(=O)[C@]12Cc3cc(C)ccc3[C@H]1N(CCC(=O)OC)C(=O)c1cc(OC)ccc12	?	?
104	CC1=C(C(=O)N2CCOCC2)CC(CC(=O)NCCc2ccccn2)C(=O)N1Cc1ccc(C(C)(C)C)cc1 (configuration not stated)	-19%	2%
105	O=S1(=O)CCOC[C@H](CC2CCCCC2)N1Cc1ccccc1F	-10%&-15%	-5%
